Assay outcomes as filed in PubChem.
miR-21 reporter – raises the signal of a miR-21 reporter. HeLa miR-21 FLuc reporter, luciferase, 48 h. AID 2288. Potency, µM (highest dose often 38.3 µM), for the others: at the highest dose reporter change, positive = more light. 340,000 tested, under 10 active; active = well fitted rising curve with a large enough effect; inconclusive = small, poorly fitted or top-dose-only effect; inactive = no such curve, though single readings can be large or run the other way;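 also: % of control where 0% means no effect; miR-21 action dims this reporter so a rising signal means less miR-21 action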
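Luminescence from a firefly luciferase reporter carrying a miR-21 binding site downstream, stably expressed under a CMV promoter in HeLa cells that make miR-21 endogenously, reports miRNA modulation after 48 h compound exposure up to approximately 40uM final.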
Rango complex inh – inhibitors of Rango-importin beta complex formation; Rango CFP/YFP FRET sensor + importin beta, 45 min; Potency, µM (titrated, usually from 92.2 µM), for the others: top-dose inhibition of complex formation; 340,000 compounds, 0.031% hits; Q14974; active = rising FRET ratio curve, often small or poorly fitted; inconclusive = mostly compound fluorescence or quenching in the first reads; inactive = flat curves in all reads;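 also: potency is read from the fitted curve at half-maximal effect; 0% = DMSO wells and 100% = buffer wells lacking importin beta; nearly all actives have a fitted effect of over 15% in size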
Target sequence (Q14974 whole entry, looked up): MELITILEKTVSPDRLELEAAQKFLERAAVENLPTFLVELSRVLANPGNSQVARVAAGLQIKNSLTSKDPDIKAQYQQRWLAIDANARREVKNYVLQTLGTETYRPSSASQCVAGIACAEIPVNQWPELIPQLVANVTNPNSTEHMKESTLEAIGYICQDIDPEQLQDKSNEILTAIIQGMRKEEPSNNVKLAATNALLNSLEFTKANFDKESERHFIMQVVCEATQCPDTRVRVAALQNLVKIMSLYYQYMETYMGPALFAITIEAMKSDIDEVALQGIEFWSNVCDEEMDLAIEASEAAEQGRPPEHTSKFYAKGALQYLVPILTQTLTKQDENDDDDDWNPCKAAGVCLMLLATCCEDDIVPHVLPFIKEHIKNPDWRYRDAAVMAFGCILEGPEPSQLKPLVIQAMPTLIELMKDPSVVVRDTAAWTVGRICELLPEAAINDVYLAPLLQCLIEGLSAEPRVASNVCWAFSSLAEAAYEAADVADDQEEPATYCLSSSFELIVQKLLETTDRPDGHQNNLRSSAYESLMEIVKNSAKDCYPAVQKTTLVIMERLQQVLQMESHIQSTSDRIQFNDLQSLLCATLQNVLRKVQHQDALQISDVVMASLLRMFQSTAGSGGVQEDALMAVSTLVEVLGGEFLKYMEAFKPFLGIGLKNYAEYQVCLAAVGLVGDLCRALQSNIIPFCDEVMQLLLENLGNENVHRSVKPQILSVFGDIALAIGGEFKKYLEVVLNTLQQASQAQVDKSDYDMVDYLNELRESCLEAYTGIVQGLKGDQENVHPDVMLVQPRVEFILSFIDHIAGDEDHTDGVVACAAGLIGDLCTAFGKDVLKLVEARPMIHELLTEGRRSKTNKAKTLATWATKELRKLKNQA
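FRET biosensor Rango (snurportin 1 IBB between N-terminal EYFP and C-terminal Cerulean), 50 nM in PBS/1 mM DTT/0.02% Tween-20/0.1% BSA, preincubated 5 min RT with compound; 0.125 microM importin beta added, 45 min RT, CFP/YFP FRET ratio read.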
Rango dissoc inh – inhibitors of RanGTP-induced Rango-importin beta complex dissociation; O95149+P62826; Biochemical FRET Rango-importin beta, RanGTP-induced dissociation; 340,000 compounds, 0.071% hits; Potency, µM (doses to about 46.1 µM), for the others: top-dose activity change, negative = inhibition; active means falling FRET ratio curve, often poorly fitted, with flat reads before Ran was added; inconclusive means other falling curves, or compound fluorescence or quenching; inactive means flat or rising ratio curve;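 also: potency is read from the fitted curve at half-maximal effect; % of control where 0% means no effect; nearly all actives have a fitted effect of over 45% in size; -100% = wells without RanGTP and RCC1; the record marks most hits as doubtful in a second field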
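FRET read at 45 min, room temperature: inhibitors block the CFP/YFP signal rise when RanGTP (0.6 uM Ran, 2 mM GTP, 0.2 uM RCC1) frees Rango (0.1 uM) from importin beta (0.25 uM). Pre-read after 5 min compound exposure flags interference.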
GLA inh pH 4.5 – blocks human alpha-galactosidase A at pH 4.5; 230,000 tested, under 10 active; purified enzyme, 4-MU-alpha-Gal fluorescence, pH 4.5; activity change, negative = inhibition, % at 105 µM; AID 1467; P06280; inconclusive = small, poorly fitted or top-dose-only inhibition, or a rising curve; inactive = flat fitted curve, though single readings scatter; no compound was filed as active;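 also: 0% = full activity with enzyme and -100% = basal without enzyme; dose as in the result columns while the protocol names 77 µM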
Active calls of the source: *; ? = inconclusive; . = not tested or not shown; & = joins results of further samples. Only part of the results is shown (hit frequency here may not be typical).

Each structure is followed by: miR-21 reporter	Rango complex inh	Rango dissoc inh	GLA inh pH 4.5
COc1cccc(CN2CC(C(=O)NCCCc3ccc(C)cc3)CCC2=O)c1 (configuration not stated)
  -29%	2.6%	-12%	.
CCOC(=O)c1sc(NC(=O)Nc2ccc(Cl)cc2)cc1C
  18%	-0.8%	0%	-15
COc1cc(F)ccc1CN1CCC(C(=O)Nc2ccc(Oc3ccccc3)nc2)CC1
  21%	2.3%	0%	.
CN(CC(=O)Nc1cccc(F)c1)C(=O)Cn1cnc2c1c(=O)n(C)c(=O)n2C
  .	-1.9%	15%	.
CCOc1ccc2c(C)c(C(=O)O)oc2c1OCC
  -2%	1.7%	-12%	1
CON=C1C=C(C)C(=O)C(C)=C1C
  .	2.5%	-20%	.
Cc1ccc(CSc2nnc(SCC(=O)N/N=C/C=C/c3ccccc3[N+](=O)[O-])s2)cc1
  7%	-0.9%	9%	-6
Cc1ccc(CNC(=O)Nc2ccccc2)cc1
  -43%	3.2%	14%	-5
Cc1ccc(-c2nnc(Nc3ccc4c(c3)OCO4)c3ccccc23)cc1S(=O)(=O)NCCO
  -7%	-0.4%	-6%	-1
O=C(c1ccccn1)N1CCN(S(=O)(=O)c2cccc(Br)c2)CC1
  .	0.5%	?	.
O=C(CN1C(=O)C(=O)N(C2CCCC2)C1=O)NCCc1ccc(Cl)cc1Cl
  .	0.0%	-1%	.
CN(C)c1nc2c(cnn2C)c(=O)[nH]1
  .	0.2%	3%	.
CCOC(=O)CNC(=O)C(CC(C)C)NC(=O)C1CCCCC1 (configuration not stated)
  0%	?	5%	-6
O=C(/C=C/c1ccc(Cl)c([N+](=O)[O-])c1)Nc1cccc(NC(=O)c2ccco2)c1
  -11%	0.6%	-4%	1
Cc1cc(C)n(-c2nc(NCCN(C)C)c3c4c(sc3n2)CCCC4)n1
  0%	2.8%	-10%	-7
CC(C)[C@H](Nc1nc(-c2ccccc2)nc2c1oc1ccccc12)C(=O)O
  1%	2.2%	4%	-11
CCc1ccc(S(=O)(=O)NCc2csc(-c3cccnc3)n2)s1
  -12%	-4.9%	0%	5
O=C(NCCC(=O)N1CCN(S(=O)(=O)c2ccccc2F)CC1)Nc1ccccc1
  .	-1.8%	4%	.
Cc1cc2nc(-c3ccc(SCC(=O)N4CCc5ccccc54)nc3)[nH]c2cc1C
  -36%	0.0%	-6%	8
CCOc1ccc(-n2c(=O)c3c4c(sc3n(CC(=O)NCc3ccco3)c2=O)CCC4)cc1
  -1%	-4.4%	-17%	0
O=C(Cc1cccc2ccccc12)OCn1nnc2ccccc2c1=O
  -8%	1.3%	7%	-2
O=C(c1sccc1Cl)N1CCN(Cc2ccc3c(c2)OCO3)CC1
  6%	-2.6%	-9%	3
COC(=O)c1c(NC(=O)CCN2CCOCC2)sc2c1CCCC2
  0%	5.7%	-7%	.
COc1ccc(-c2cc(=O)c3cc(OC)ccc3[nH]2)cc1
  -39%	-1.3%	-15%	2
COc1ccc(S(=O)(=O)N2CCN(C(=O)C3CC3)CC2)cc1
  0%	-0.5%	8%	.
CCCn1nc(NC(=O)c2cccs2)c2cc3cccc(C)c3nc21
  1%	?	?	4
CC1(C2CCC3C4CCC5CC6(CCC5(C)C4C(=O)CC32C)OCCO6)OCCO1 (configuration not stated)
  .	-0.6%	-2%	.
COc1ccc(-c2nnc(SC3CCOC3=O)n2C2CCCCC2)cc1OC (configuration not stated)
  0%	1.5%	-1%	4
CC(C)CCNC(=O)C1CCC(CNS(=O)(=O)c2cccc3nsnc23)CC1 (configuration not stated)
  3%&20%	0.1%	17%	.
Cc1ccc(S(=O)(=O)N2CCCCC2)cc1NC(=O)CCCOc1ccccc1
  .	0.1%	10%	.
CN(CCNC(=O)c1ccc(CS(=O)(=O)c2c(Cl)cccc2Cl)o1)CCc1ccccc1
  4%	-0.4%	10%	.
COc1ccc(NC(=O)C2CCCN2C(=O)NCc2ccccc2)c(OC)c1 (configuration not stated)
  -9%	1.6%	2%	0
CN1C(=O)/C(=C\c2ccc(OC(=O)c3ccco3)cc2)SC1=S
  9%	8.3%	-6%	.
CC1(C)CC(=O)C(C=NCCN2CCN(C(=O)c3ccc(F)cc3)CC2)=C(O)C1
  2%	?	1%	-2
O=C(NCCNC(=O)c1ccccc1Br)c1ccccc1Br
  7%	5.4%	36%	.
CCn1c(-c2ccccc2O)n[nH]c1=S
  2%	0.3%	-7%	6
Fc1ccc2nc(Nc3nc4c(s3)CCCC4)sc2c1
  -24%	?	?	7
COc1ccc(S(=O)(=O)NC(CC(=O)NCCc2ccc(OC)c(OC)c2)c2ccco2)cc1 (configuration not stated)
  -5%	2.2%	-4%	-21
CCOC(=O)c1ccc(NC(=O)CSc2nc(SC)ns2)cc1
  -40%	5.7%	0%	4
O=C(Nc1ccccc1F)c1ccc(-c2cccc([N+](=O)[O-])c2)o1
  -50%	0.6%	-6%	.
COc1ccc(OCCCC(=O)N(C)CC(=O)Nc2c(C)cccc2C)cc1
  .	-2.9%	11%	.
CC(C)Sc1nc2c(c(=O)[nH]1)C(c1cccs1)C1=C(CC(C)(C)CC1=O)N2 (configuration not stated)
  6%	0.6%	13%	1
COC(=O)c1cc(NC(=O)CSc2nnc(CN3CCOCC3)n2C)ccc1Cl
  2%	3.1%	3%	-8
COC(=O)c1cc2ccsc2n1Cc1cc(=O)n2ccccc2n1
  -44%	3.4%	2%	-3
Cn1nnnc1Sc1ncnc2scc(-c3ccccc3C(F)(F)F)c12
  .	-0.9%	-10%	.
COc1ccc(Br)cc1C(=O)Nc1cccc(C)c1
  -11%	?	?	5
O=C(CNC(=O)c1ccccc1C(F)(F)F)N/N=C/c1cccs1
  -3%	2.5%	0%	.
CCOc1ccc(CCNC(=O)c2nnn(CC(=O)Nc3c(C)cc(C)cc3C)c2N)cc1OCC
  2%	-2.3%	-9%	.
CCOc1ccccc1CNC(=O)CCNC(=O)Cn1ccc2ccccc2c1=O
  0%	3.2%	-3%	4
CCCCn1c(NCCC)nc2c1c(=O)[nH]c(=O)n2C
  -4%	0.5%	-14%	-2

Further records:
Each structure is followed by: miR-21 reporter	Rango complex inh	Rango dissoc inh	GLA inh pH 4.5
Cc1cccc(C(=O)O)c1NC(=O)Cc1cccc2ccccc12
  -8%	?	-1%	.
CC(C)COc1ccc(C(=O)CCN2CCCCC2)cc1
  8%	0.3%	4%	-7
Cc1nc(C2COc3ccccc3O2)sc1C(=O)O (configuration not stated)
  -36%	-1.5%	2%	2
CCCCNC(=O)c1onc(CSc2ccccc2)c1C(=O)NCCCC
  .	?	-8%	.
COc1ccc(NC(=O)CSc2nnc(COc3ccccc3)n2Cc2ccco2)cc1OC
  7%	2.2%	3%	1
O=C(NCC1CCCO1)c1ccc(NS(=O)(=O)c2cccs2)cc1 (configuration not stated)
  -6%	-0.2%	6%	-1
CC(C)CNC1CS(=O)(=O)CC1O (configuration not stated)
  -3%	-0.4%	5%	7
COC(=O)C1=C(C)NC(C)=C(C(=O)OCC(C)C)C1c1ccccc1[N+](=O)[O-] (configuration not stated)
  .	0.3%	-8%	.
Cc1ccc(-c2ccc(CCC(=O)O)n2-c2cccc(O)c2)cc1
  -15%&-3%	-1.9%	-17%	4
CCCn1nnc(NC(=S)NC(=O)c2ccc(-c3ccc(Br)cc3)o2)n1
  -15%	1.6%	-17%	0
O=C(Nc1ccc(F)cc1)c1cccc(N2C(=O)C3C4CCC(C4)C3C2=O)c1 (configuration not stated)
  0%	-4.0%	6%	-5
Cc1ccnc(NC(=S)NC(=O)c2ccco2)c1
  -65%	0.2%	-10%	4
CC(=O)N1c2ccc(S(=O)(=O)NCC3CCC(C(=O)N4CCCC(C)C4)CC3)cc2CC1C (configuration not stated)
  9%	-3.0%	0%	.
CCc1ccccc1OCCOc1ccc(C)cc1OC
  -17%	-2.2%	21%	3
CCC(C)N1CC23C=CC(O2)C(C(=O)OC)C3C1=O (configuration not stated)
  -4%	-0.3%	2%	10
CSc1ccccc1NC(=O)Cc1ccc(Br)cc1
  -11%	0.5%	0%	0
COCCNC(=O)C(=O)NCC1OCCN1S(=O)(=O)c1cccs1 (configuration not stated)
  0%	-0.1%	2%	3
CCCc1nn2c(=O)cc(COc3cccc(NC(=O)c4ccco4)c3)nc2s1
  0%	-2.6%	-11%	.
Cc1c(NC2=C(Cl)C(=O)N(c3ccccc3)C2=O)c(=O)n(-c2ccccc2)n1C
  -6%	-1.1%	0%	-4
Cc1cc(NS(=O)(=O)c2ccc(NC(=O)COc3ccc(Cl)cc3)cc2)no1
  -11%	4.7%	-4%	6

Three structures out of the list, sorted by length of the SMILES, low to high:
Each structure is followed by: miR-21 reporter	Rango complex inh	Rango dissoc inh	GLA inh pH 4.5
CON=C1C=C(C)C(=O)C(C)=C1C
  .	2.5%	-20%	.
COc1ccc(-c2nnc(SC3CCOC3=O)n2C2CCCCC2)cc1OC (configuration not stated)
  0%	1.5%	-1%	4
COc1ccc(NC(=O)C2CCCN2C(=O)NCc2ccccc2)c(OC)c1 (configuration not stated)
  -9%	1.6%	2%	0

The results go on:
Each structure is followed by: miR-21 reporter	Rango complex inh	Rango dissoc inh	GLA inh pH 4.5
COc1ccc(NC(=O)CN2C(=O)NC3(CCCC3)C2=O)cc1
  10%	3.8%	?	.
O=C(CN(C1CCCCC1)S(=O)(=O)c1ccc(Cl)cc1)NCCCO
  -3%	-0.6%	-13%	-8
O=C(NC(Cc1ccccc1)C(=O)N1CCCCCC1)c1ccccc1 (configuration not stated)
  -1%	-2.6%	14%	.
Cc1cc(N/N=C/c2ccc(F)cc2)nc(-n2nc(C)cc2C)n1
  ?	4.5%	8%	-4
O=C(NC(=S)NCc1ccccc1)c1ccc2c(c1)OCO2
  -36%	4.9%	2%	-12
CC(=O)OCC1(C)CN(c2ccccc2)NC1=O (configuration not stated)
  -16%	-3.8%	-5%	-10
CCn1cc(S(=O)(=O)CC(=O)Nc2ccc3c(c2)OCCO3)c2ccccc21
  -10%	3.2%	-6%	7
COc1ccccc1CNC(=O)CSc1nc2ccccc2c(=O)n1CCCN1CCOCC1
  -2%	3.7%	-9%	5
CN(C(=O)CN1C(=O)NC(c2ccccc2)(c2ccccc2)C1=O)C1CCS(=O)(=O)C1 (configuration not stated)
  .	4.0%	21%	.
Cc1cc(C)c(NC(=O)CNC(=O)[C@@H]2CCCN2C(=O)c2cccs2)c(C)c1
  .	-2.1%	-6%	.
COc1ccc(-c2cc(=O)oc3cc(O)ccc23)cc1
  2%	?	?	.
COc1cccc(C2CC(c3cccs3)=NN2C(=O)CSc2nc3ccccc3s2)c1OC (configuration not stated)
  27%	1.0%	0%	0
CCCCNC(=S)N/N=C/c1ccccc1F
  -37%	4.1%	0%	-14
O=C(NCc1cccnc1)C1CC(c2cccc(Br)c2)=NO1 (configuration not stated)
  16%	-3.2%	?	.
O=C1CC(c2ccccc2)n2ncnc2N1 (configuration not stated)
  -2%	-3.4%	-4%	-2
CC1CCN(C(=O)Cn2ncc3c([nH]c4ccccc43)c2=O)CC1
  -2%	-3.4%	-11%	.
COC(C)(C)[C@]12CC(O)(C(C)C)ON1[C@H]1CCCCC1N2O (some centres not stated)
  -3%	2.8%	-12%	2
Cc1ccc(CN2C(=O)c3ccccc3C2C(=O)NCC2CCCO2)cc1 (configuration not stated)
  -1%	-2.5%	-15%	-8
O=C(Nc1cccc([N+](=O)[O-])c1)Nc1ccc2c(c1)OCCO2
  -12%	0.4%	24%	-4
O=C(CSc1nnc(-c2ccc(OC(F)F)cc2)o1)NC(=O)NCc1ccco1
  -1%	-1.9%	-7%	-2
COc1ccccc1C(=O)CN1C(=O)NC2(CCc3ccccc32)C1=O (configuration not stated)
  .	-0.5%	13%	.
CCCCC(=O)Oc1cc(C)[nH]c(=O)c1[N+](=O)[O-]
  3%	1.2%	10%	0
